Screening data: PubChem BioAssay, Vanderbilt University
GIRK2 act = GIRK2 channel activation | P48051 | AID 1259325 | 63,000 compounds, 0.05% hits | HEK293-GIRK2 thallium flux, Thallos fluorescence | calls only for hits at 25 µM;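 active = among the strongest 0.2% of first-round signals and kept after retests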;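 note: first round at about 10 µM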
Target sequence (P48051 whole entry, looked up): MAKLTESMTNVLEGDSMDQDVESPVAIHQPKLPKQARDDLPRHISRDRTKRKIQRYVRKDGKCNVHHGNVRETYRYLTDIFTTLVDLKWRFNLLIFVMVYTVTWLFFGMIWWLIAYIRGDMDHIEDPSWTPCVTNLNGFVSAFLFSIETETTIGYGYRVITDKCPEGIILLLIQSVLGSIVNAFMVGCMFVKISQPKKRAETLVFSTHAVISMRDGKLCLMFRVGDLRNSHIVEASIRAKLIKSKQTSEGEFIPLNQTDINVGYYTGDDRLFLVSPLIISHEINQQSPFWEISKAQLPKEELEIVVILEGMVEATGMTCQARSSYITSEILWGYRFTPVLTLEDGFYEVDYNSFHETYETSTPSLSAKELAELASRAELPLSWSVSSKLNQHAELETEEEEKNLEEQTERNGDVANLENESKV
Calls only; i = inactive.

GIRK2 act,SMILES
i,CN1CCN(c2nc3c(c(=O)[nH]c(=O)n3C)n2CC(=O)c2ccc([N+](=O)[O-])cc2)CC1
i,COC(=O)c1ccccc1NC(=O)Cn1c(-c2ccccc2)nc(C)c(Cl)c1=O
i,CCCC/C=C/C=C/C=C\CCCCCCCC(=O)OC
i,COc1ccc(S(=O)(=O)NCc2ccccn2)cc1
i,Cc1cc2c(=O)n(C)c(SCC(=O)NC3CCCC3)nc2s1
i,Cc1ccc(Cn2cc(-c3noc(C(=O)Nc4ccc(Br)cc4)n3)nn2)cc1
i,COc1cc(OC)cc(C(=O)Nc2cc3c4c(c2)CCN4C(=O)CC3)c1
i,Cn1c(SCc2nc(-c3ccccc3)no2)nc2cc(-c3ccccc3)sc2c1=O
i,O=C(CSc1nnc(N2CCN(C(=O)Cc3cccs3)CC2)s1)NCc1ccco1
i,COc1ccc(-c2noc(-c3ccc(=O)n(CC(=O)Nc4cc(Cl)c(OC)cc4OC)c3)n2)cc1
i,CCC(=O)N1CCN(C(=O)C(NC(=O)c2ccccc2OC)S(=O)(=O)c2ccccc2)CC1 (centres undefined)
i,Cc1cc(C)c(S(=O)(=O)NCCC(O)C2CC2)cc1C (centres undefined)
i,Cc1ccc(N2CC(C(=O)NCCn3nc(-n4ccnc4C)ccc3=O)CC2=O)cc1C (centres undefined)
i,CN(C)CCCNc1nccc(-c2c(-c3ccc(F)cc3)nn3cc(C(F)(F)F)ccc23)n1
i,CCc1cccc(C)c1NC(=O)Cn1c(-c2nc(-c3ccccc3)no2)cccc1=O
i,Cc1ccc(Cl)cc1NS(=O)(=O)c1cn(C)nc1C
i,C=CCOC(=O)COc1ccc2c(c1)O/C(=C\c1ccc(OC)cc1OC)C2=O
i,O=C(Nc1cc(-n2cccn2)ncn1)C1COc2ccccc2O1 (centres undefined)
i,COc1cc(OC)cc(-c2nnc(NC(=O)Cc3cccc4ccccc34)o2)c1
i,CCc1nnc(C2CCN(C(=O)c3ccccc3F)CC2)s1
i,CC(=O)Oc1ccc2c(=O)c(Oc3ccc(I)cc3)coc2c1
i,O=c1c2nc(N3CCCC3)sc2c(-c2cccs2)nn1Cc1cccc(F)c1
i,CC(C)n1c(=O)c2ccccc2n(Cc2nc(-c3ccc4c(c3)OCO4)no2)c1=O
i,COC(=O)C1CCN(C(=O)C2c3cc(Br)ccc3CCN2C(=O)OC)CC1 (centres undefined)
i,O=c1c(Oc2ccc(F)cc2F)cc2cnc(NC3CCOCC3)nc2n1C1CC1
i,COc1ccccc1N1CCN(C(=O)COc2ccc3c(c2)C(=O)CC3)CC1
i,C=CCn1c(=O)c2c(nc3n(-c4ccccc4N)c(C)c(C)n23)n(C)c1=O
i,CN1CCCC(C(=O)N2CCC(Oc3ccccn3)CC2)C1 (centres undefined)
i,COc1ccc(NC(=O)/C=C/C2=Cc3ccccc3OC2)cc1
i,O=C(COc1ccc(Cl)cc1)NCC(c1cccs1)N1CCOCC1 (centres undefined)
i,O=c1n(Cc2nc(-c3ccc4c(c3)OCO4)no2)nc2ccc(-c3ccccc3)nn12
i,COc1ccc(C)cc1NC(=O)CNC(=O)c1ccc(=O)[nH]c1
i,COc1ccc(OCc2noc(CNC(=O)c3ccc4c(c3)OCO4)n2)cc1
i,CSc1ccccc1NC(=O)C(=O)NCC(O)c1ccc2c(c1)CCO2 (centres undefined)
i,COc1ccc(C(C)NC(=O)c2nnn(-c3ccc(F)cc3)c2C)cc1 (centres undefined)
i,OC[C@H]1O[C@@H](Oc2ccc3c(c2)OC[C@H]2c4cc5c(cc4O[C@@H]32)OCO5)[C@H](O)[C@@H](O)[C@@H]1O
i,CCc1[nH]nc(S(=O)(=O)N2CC=C(c3ccccc3)CC2)c1C(=O)OC
i,Cc1cc(NC(=O)C2COCC(=O)N2Cc2ccccc2)c2ccccc2n1 (centres undefined)
i,CCOC(=O)c1cnc2cc(C(F)(F)F)ccc2c1N1CCN(C(C)=O)CC1
i,COc1cccc(-n2nnc(-c3nc(-c4ccccc4)cs3)c2N)c1
i,CCOc1ccc(C(=O)Nc2ccc3c(c2)CCCN3C(=O)CC)cc1OCC
i,COc1ccc(CCS(=O)(=O)NCC2(c3ccc(F)cc3)CC2)cc1
i,O=C1CC(c2nc(-c3ccc4c(c3)OCO4)no2)CN1c1ccc2c(c1)OCCO2 (centres undefined)
i,Cc1ccc(-n2nnc3c(N4CCN(C(=O)Cc5cccc(C)c5)CC4)ncnc32)cc1
i,O=C(CC1=NS(=O)(=O)c2ccccc2N1)NCc1ccccc1Cl
i,CCc1cc(=O)n(CC(=O)Nc2ccc3c(c2)OCO3)c(C)n1
i,O=C(NCc1cnn2ccccc12)c1c(F)cccc1Cl
i,CCN(CC)S(=O)(=O)c1ccc(-c2nc(C#N)c(NCCc3ccccc3)o2)cc1

By substructure: the entries above containing two or more sulfur atoms
GIRK2 act,SMILES
i,Cc1cc2c(=O)n(C)c(SCC(=O)NC3CCCC3)nc2s1
i,Cn1c(SCc2nc(-c3ccccc3)no2)nc2cc(-c3ccccc3)sc2c1=O
i,O=C(CSc1nnc(N2CCN(C(=O)Cc3cccs3)CC2)s1)NCc1ccco1
i,O=c1c2nc(N3CCCC3)sc2c(-c2cccs2)nn1Cc1cccc(F)c1

More structures:
GIRK2 act,SMILES
i,Cc1ccc2c(Nc3ccc4c(c3)OCCO4)c(C(=O)N3CCCC(C)C3)cnc2n1 (centres undefined)
i,CCN=C1SC(CC(=O)O)C(=O)N1CC (centres undefined)
i,Cc1c(Cl)ccc2sc(N3CCN(C(=O)NC4CCCC4)CC3)nc12
i,Cc1ccc(Oc2nccn3c(=O)n(CC(=O)N4CCN(c5ccccc5F)CC4)nc23)cc1
i,Cc1cc(C(=O)N2CCN(CCNC(=O)/C=C/c3ccccc3)CC2)no1
i,Cc1ccc(C(C)C)c(OCC(O)Cn2c(N3CCCCC3)nc3c2c(=O)n(C)c(=O)n3C)c1 (centres undefined)
i,COC(=O)c1ccc(S(=O)(=O)N2CC(Oc3nc4c(OC)cccc4s3)C2)cc1
i,COc1cc(NC(=O)CSc2nccn3nc(-c4ccccc4)cc23)cc(OC)c1OC
i,CCOC(=O)c1ccccc1NC(=O)Cn1cnc2c(-c3ccc(C)cc3)csc2c1=O
i,Cc1cccc(OCC(O)Cn2c(N(C)C)nc3c2c(=O)[nH]c(=O)n3C)c1 (centres undefined)
i,COCc1cc(=O)n(CC(=O)Nc2ccc(OC)c(F)c2)c(N)n1
i,O=C(NCc1ccc(Cl)cc1)N1CCC(CSc2ccccn2)CC1
i,Cc1ccc(Cl)cc1NC(=O)CSc1nc2c(sc(=S)n2-c2ccccc2)c(=O)[nH]1
i,Cc1ccccc1Nc1cc(C)n2c(=O)n(Cc3ccc(F)cc3)nc2n1
i,CN(C(=O)C1CCN(S(=O)(=O)c2ccccc2[N+](=O)[O-])CC1)C1CCCCC1
i,O=C(c1cc(Cl)ccc1Cl)N1CCC(Oc2ncccc2Cl)CC1
i,CCOc1ccc(/C=C/C(=O)Nc2ccc(CC)cc2)cc1
i,O=C(NC1(c2nc(C3CC3)no2)CCCCC1)c1cc(Cl)ccc1F
i,O=C(/C=C/c1cccs1)N1CCN(S(=O)(=O)C2CC2)CC1
i,COCCn1c(=O)c2c(nc3n(-c4ccc(C)cc4C)c(C)c(C)n23)n(C)c1=O
i,O=C(NCC1CCN(C(=O)c2ccoc2)CC1)C1COc2ccccc2O1 (centres undefined)
i,COc1ccc(OC)c(/C=N\NC(=O)c2nc(N)n[nH]2)c1
i,CN(C(=O)CN1CCN(Cc2nc(-c3ccccc3)cs2)CC1)c1ccccc1
i,CCc1ccc(C2C(C(=O)Nc3ccccc3OC)C(C)Nc3ncnn32)cc1 (centres undefined)
i,CSc1ccc(-c2noc(Cn3ncn4nc(-c5cccs5)cc4c3=O)n2)cc1
i,Cc1cc(S(=O)(=O)NCCn2nc(-c3ccc(Cl)cc3)ccc2=O)ccc1F
i,Cc1cc(OCC(=O)Nc2cccc(C)c2C)nc(N2CCN(c3ccccc3)CC2)n1
i,Cc1cc(C)n(-c2cc(N3CCN(C(=O)Cc4cccs4)CC3)nc(C)n2)n1
i,FC(F)(F)c1cccc(/C=C/c2nn3c(-c4ccccc4)nnc3s2)c1
i,O=C(Cc1cccs1)Nc1nnc(C2CC(=O)N(c3ccccc3)C2)o1 (centres undefined)
i,Cc1nnsc1C(=O)Nc1ccc(-n2nc(C(F)(F)F)cc2C(F)(F)F)cc1
i,O=C(/C=C/c1cccs1)Nc1ccc2c(c1)CC(=O)N2
i,C=CCNS(=O)(=O)c1ccc(C(=O)NC2CC(C)(C)NC(C)(C)C2)cc1
i,O=C(C1=COCCO1)N1CC(Oc2nc3c(Cl)cccc3s2)C1
i,CS(=O)(=O)N1CCc2nc(NC(=O)Nc3ccc4c(c3)OCO4)sc2C1
i,CN(c1ccc2c(c1)OCCO2)S(=O)(=O)c1ccsc1-c1nc(-c2ccc(Cl)cc2)no1
i,CC(=O)N1CCc2ccc(NC(=O)c3cc(-c4ccc(F)cc4)nn3C)cc21
i,O=C(Cn1c(=O)oc2ccccc21)NCCCn1ccnc1-c1ccccc1
i,COc1cccc(N2CC(c3nc4ccccc4n3C)CC2=O)c1 (centres undefined)
i,O=C(c1ccccn1)N1CCN(CCn2ccnc2)CC1

A different layout for part of the listing above:
CC(=O)N1CCc2ccc(NC(=O)c3cc(-c4ccc(F)cc4)nn3C)cc21
  GIRK2 act: i
O=C(Cn1c(=O)oc2ccccc21)NCCCn1ccnc1-c1ccccc1
  GIRK2 act: i

Next part.
GIRK2 act,SMILES
i,O=C(Nc1ccc2c(c1)OCO2)N1CC(c2nc(-c3cccs3)no2)C1
i,COc1cccc(C(=O)Nc2cccc(C(=O)O)c2)c1
i,Cc1ccc(Oc2nccn3c(=O)n(CC(=O)Nc4ccc(C(C)C)cc4)nc23)cc1
i,COc1ccc(-c2nn3c(N4CCCCCC4)cc(C)nc3c2C)cc1OC
i,CC(C)CNc1nc2ccccc2nc1NS(=O)(=O)c1ccccc1
i,CCOc1ccc(NC(=O)CNS(=O)(=O)c2ccc(F)c(Cl)c2)cc1
i,NC1=NC(=O)S/C1=C\c1cc(Cl)ccc1OCC(=O)Nc1ccc(Cl)cc1
i,Cc1cccc(C)c1NC(=O)C[N+]1(C)CCOCC1

Reformatted: entries from further up
> COc1cccc(C(=O)Nc2cccc(C(=O)O)c2)c1
  GIRK2 act = i
> CC(C)CNc1nc2ccccc2nc1NS(=O)(=O)c1ccccc1
  GIRK2 act = i
> Cc1cccc(C)c1NC(=O)C[N+]1(C)CCOCC1
  GIRK2 act = i
> O=C(Nc1ccc2c(c1)OCO2)N1CC(c2nc(-c3cccs3)no2)C1
  GIRK2 act = i

Additional structures:
GIRK2 act,SMILES
i,COc1cc(S(=O)(=O)NCC2CCCO2)c(OC)cc1C (centres undefined)
i,Cc1cc(=O)c2cc(C(=O)NCc3ccccc3)ccc2[nH]1
i,COc1ccc(CCNC(=O)NCCN2CCC(c3cccs3)CC2)cc1
i,COc1cccc2cc(-c3nnc(NC(=O)NC4CCCC4)o3)oc12
i,NC(=O)CSc1nnc(N2CCN(C(=O)/C=C/c3ccccc3)CC2)s1
i,CCOC(=O)CCC(=O)Nc1ccc(-c2nnc(N(C)c3ccccc3)s2)cc1
i,O=C(c1cc(C(F)(F)F)cc(C(F)(F)F)c1)N1CC(c2nc(-c3ccco3)no2)C1
i,COc1ccc(CCNC(=O)CSc2nnc(-c3ccccc3)o2)cc1OC
i,COc1cccc(CSc2nc(CC(=O)N3CCN(C(C)=O)CC3)cc(=O)[nH]2)c1
i,NC(=O)c1ccccc1OCC#CCNC(=O)CCc1ccccc1
i,CC(C)CCNC(=O)c1coc(NC(=O)C2CCC2)n1
i,COc1ccc(CCNC(=O)NC2CCCC(OC(=O)Nc3ccccc3)C2)cc1 (centres undefined)
i,O=C(CSc1nc2ccccc2o1)Nc1cccc(-c2ccn[nH]2)c1
i,CCNC(=O)c1cc2c(=O)n3cccc(C)c3nc2n1CCCOC
i,CN(CC(=O)NCc1ccc(S(N)(=O)=O)cc1)c1nc2c(F)cccc2s1
i,Cc1ccc(CNC(=O)Cn2cnc(-c3noc(-c4cccnc4)n3)c2)cc1
i,Cc1nc(-c2cccc(NC(=O)c3cc(-c4ccccc4)nn3C)c2)cs1
i,O=C(NCC1CCN(Cc2cccs2)CC1)c1ccsc1
i,CN(C)S(=O)(=O)c1ccc(C(=O)Nc2c3c(nn2CC(=O)NCc2ccccc2)CSC3)cc1
i,COC(=O)c1ccc(NC(=O)CN2CCN(c3cccc(Cl)c3)C2=O)cc1
i,C#CCOCC1CCCN(C(=O)c2c(F)cccc2F)C1 (centres undefined)
i,COc1cc(NC(=O)NCc2ccccc2)ccc1N1CCCC1=O
i,CCCCCNc1ccc(S(=O)(=O)Cc2ccc(Cl)cc2)nn1
i,Cc1cccc(CCC(=O)O)c1
i,CCOC(=O)c1ccc(NC(=O)CSc2nc3c(sc(=S)n3-c3ccccc3)c(=O)[nH]2)cc1
i,CCS(=O)(=O)N1CCN(c2cc(N3CCCCC3)ncn2)CC1
i,Cc1ccc(N2CC(C(=O)NC3(c4nc(C)no4)CCCCC3)CC2=O)c(C)c1 (centres undefined)
i,Cc1ccc(CNC(=O)c2c(C)c3c(=O)n(CC(=O)Nc4cccc(C)c4C)ncn3c2C)cc1
i,O=C(c1cnn2c(-c3ccc(Cl)cc3)ccnc12)N1CCN(c2ccccc2)CC1
i,Cc1noc(CNC(=O)C2CCN(C(=O)/C=C/c3ccc4c(c3)OCO4)CC2)n1
i,Cc1c(Cl)cccc1S(=O)(=O)NCC1CCN(C(=O)c2ccoc2)CC1
i,Cc1ccc(OCC(=O)NCC(c2cccs2)N2CCOCC2)cc1 (centres undefined)
i,Cc1nnsc1C(=O)N1CCC(CNC(=O)c2ccc(OC(F)(F)F)cc2)CC1
i,Cc1cccc(S(=O)(=O)c2c(N)n(/N=C\c3cccs3)c3nc4ccccc4nc23)c1
i,Cc1ccc2c(Nc3ccc4c(c3)OCO4)c(C(=O)N3CCCCCC3)cnc2n1
i,CCOC(=O)c1c(S(=O)(=O)Nc2ccc(OC)cc2)n[nH]c1C

Only part of the results is shown; count on the stated rates, not on these rows.
